Assay outcomes: PubChem BioAssay, ICCB-Longwood Screening Facility, Harvard Medical School
fixLJ activator – activators of Burkholderia fixLJ two-component system | z-score (no concentration beside the values) | 29,000 tested, 0.3% active | B. multivorans fixK-promoter GFP reporter, 18 h; active compounds read high;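 active means replicate mean overnight rise in green fluorescent reporter signal, 3 or more SD over negative controls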;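 further: score is relative to vehicle wells of the plate; 300 nL library stock went into each well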
The depositor's hits bear a star; & = joins results of further samples.

no.	Compound	fixLJ activator
1	COc1ccccc1-n1cc(C(=O)N2CCC3(CCNC(=O)CC3)CC2)cn1	-0.95
2	CO[C@@]12CCC(NC(C)=O)CC1N(C(=O)c1ccccc1-c1ncc[nH]1)CC2 (some centres not stated)	-0.38
3	COc1ccc(OCC2CCCN(C(=O)c3ccc4nc(C)[nH]c4c3)C2)cc1 (configuration not stated)	3.36*
4	O=C(Cc1ccccc1)Nc1sc2c(c1C(=O)Nc1ccc(Br)cc1)CCC2	-2.25
5	Cc1ccc2oc(=O)n(CCCOc3ccccc3Cl)c2c1	-0.07
6	CCCCN1C(=O)C(O)(c2c[nH]c3ccccc23)c2cc(Br)ccc21 (configuration not stated)	-2.91
7	CCN(CCCNC(=O)c1cc(Nc2ccccc2OC)nc2ccccc12)c1cccc(C)c1	2.72
8	COc1nc(C)cc(C)c1CNC(=O)[C@]12COCC1CN(CC(=O)N(C)C)C2 (some centres not stated)	-0.6
9	COc1ccc(NC(=O)c2c(NC(=O)COc3ccccc3)sc3c2CCCCC3)cc1	-0.98
10	COc1ccc(NC(=O)CN2CCN(c3ncn[nH]3)CC2)cc1Cl	0.08
11	CCOC(=O)C(Cc1ccccc1)NC(=O)Cn1nnc(-c2ccc(C)cc2)n1 (configuration not stated)	-3.11
12	CCn1cc(C(=O)OCC(=O)Nc2ccc(F)cc2F)c(=O)c2ccc(C)nc21	1.24
13	COc1ccc(NC(=O)Nc2nnc(C)s2)cc1	-1.08
14	Cc1cccc(C)c1NC(=O)Nc1csc2c1CCCC2	-1.05
15	CC1=C(CC(=O)O)c2cc(F)ccc2/C1=C/c1ccc(S(C)=O)cc1 (configuration not stated)	-0.9
16	CC(=O)Nc1ccc(S(=O)(=O)NC2(C(F)(F)F)NC(=O)N(c3ccccc3F)C2=O)cc1 (configuration not stated)	0.46
17	CN(Cc1ccccc1)C(=O)C1CCN(S(=O)(=O)c2ccc3nc4c(c(C(=O)O)c3c2)CCCC4)CC1	-1.3
18	CCOC(=O)C1=C(c2ccccc2)Nc2ncnn2C1c1ccc(Cl)cc1 (configuration not stated)	-0.6
19	CC(C)CN(CCO)C(=O)C(C)c1n[nH]c(=O)c2ccccc12 (configuration not stated)	-0.71
20	Cc1ccc2nc(-c3ccc(NC(=O)COc4c(C)ccc(C)c4C)cc3)sc2c1	-0.21
21	CC(C)(C)c1ccc(Oc2nc3ccccn3c(=O)c2/C=C(\C#N)c2nc3ccccc3s2)cc1	-2.13
22	Cc1nc(-c2ccc(NC(=O)C3CC(=O)OC34CCCC4)cc2)n[nH]1 (configuration not stated)	-0.8
23	C[C@H]1C[C@@H]2[C@H]([C@@H](O)C[C@@]3(C)[C@H]2CC[C@]3(O)C(=O)CO)[C@@]2(C)C=CC(=O)C=C12	-1.42
24	COc1ccc(C2C(C(=O)Nc3ccccc3)=C(C)Nc3nc(-c4ccccc4)nn32)cc1OC (configuration not stated)	-0.91
25	CCCc1nnc(NC(=O)Cc2coc3ccc(C(C)C)cc23)s1	-2.06
26	COc1ccc(NC(=O)c2cc(-c3ccc4c(c3)OCO4)on2)c(OC)c1	-0.07
27	CCC(C)NC(=O)c1ccc2c(c1)N(Cc1ccccc1F)C(=O)c1ccccc1S2=O (configuration not stated)	-1.23
28	COCC1C(NC(=O)Cc2ccc3c(c2)c2ccccc2n3C)C2CCOC21 (configuration not stated)	0.39
29	COCCCNC(=O)c1c(NC(=O)c2nc(S(C)(=O)=O)ncc2Cl)sc2c1CCCC2	1.12
30	CC1CN(C(=O)Nc2ccc(C(=O)NCCc3ccc(Cl)cc3)cc2)c2ccccc2S1 (configuration not stated)	-1.5

An excerpt of these results, field by field.
#4 O=C(Cc1ccccc1)Nc1sc2c(c1C(=O)Nc1ccc(Br)cc1)CCC2
- fixLJ activator = -2.25
#5 Cc1ccc2oc(=O)n(CCCOc3ccccc3Cl)c2c1
- fixLJ activator = -0.07
#6 CCCCN1C(=O)C(O)(c2c[nH]c3ccccc23)c2cc(Br)ccc21 (configuration not stated)
- fixLJ activator = -2.91
#7 CCN(CCCNC(=O)c1cc(Nc2ccccc2OC)nc2ccccc12)c1cccc(C)c1
- fixLJ activator = 2.72

Following part
no.	Compound	fixLJ activator
31	O=C(Nc1sc2c(c1C(=O)NCc1ccco1)CCCC2)c1cc(=O)c2ccccc2o1	-2.08
32	CCc1ccc(NC(=O)CC(NCc2cccnc2)C(=O)O)cc1 (configuration not stated)	-0.79
33	COc1ccc(NC(=O)CC2C(=O)N(c3cccc(OC)c3)C(=O)N2CCc2cccs2)cc1 (configuration not stated)	-1.39
34	CCc1ccc(S(=O)(=O)c2nnn(-c3cccc(C)c3)c2N)cc1	-0.48
35	Cc1cccc2nc(-c3cccnc3)c(Nc3ccc(C(C)C)cc3)n12	-1.45
36	COc1ccc(CCNC(=O)c2nnc(Cc3ccc(Cl)cc3)o2)cc1OC	-0.89
37	Cc1ccc(NC(=O)CSc2ncc(-c3ccccc3)[nH]2)cc1	-1.3
38	Cc1ccccc1C1C(C(=O)N2CCC(C)(C#N)CC2)OCC(=O)N1C (configuration not stated)	-2.81
39	CCc1nc2ccccc2n1CCC(=O)NCc1cc(=O)[nH]cn1	-1.89
40	N#Cc1ccc(C(=O)Nc2ccccc2-c2nc3ccccc3s2)c(F)c1	0.71
41	Cc1nc2nc(SCC(=O)NC3CCCCC3)nn2c(C)c1Cc1ccccc1Cl	-0.98
42	CCOc1ccc(/C=C/C(=O)Nc2sc3c(c2C(=O)OC)CCCC3)cc1	-0.73
43	Nc1nccc(-c2cccc(C(=O)NCC3(O)CCCCC3)c2)n1	0.34
44	C[C@]12CC[C@@H]3c4ccc(O)cc4CC[C@H]3[C@@H]1C[C@@H](O)[C@@H]2O	-1.57
45	CC(=O)c1ccc(OC(=O)c2c(-c3ccccc3Cl)noc2C)cc1	0.3
46	O=C(CC1CCc2ccccc21)NC1CCN(C(=O)c2ccncc2)CC1 (configuration not stated)	-0.95
47	CN1CC(=O)N2CC(NC(=O)c3ccc(Cl)s3)CC2C1=O (configuration not stated)	-0.54
48	CN(C)c1nsc(N2CC[C@@]3(O)CCN(C(=O)C4CCCC4)C[C@H]3C2)n1	0.34
49	CC(C)(C)c1ccc(C(=O)NC2=NC(c3cccc(F)c3)CC(=O)N2)cc1 (configuration not stated)	-4.4
50	Cc1ccc(NCc2cccn2-c2nnc(N3CCC(C(=O)NCCC(C)C)CC3)s2)cc1	0.45
51	COc1ccccc1-c1nnc(SCC(=O)c2ccc(F)cc2)n1-c1ccccc1	-1.58
52	CCN(CC)S(=O)(=O)c1ccc(NC(=O)c2ccc3c(=O)n4c(nc3c2)CCCCC4)cc1	-1.35
53	COc1ccc(CNC(=O)C2CCN(C(=O)c3cnn(-c4ccccc4)c3-n3cccc3)CC2)cc1	-1.63
54	c1ccc(C(c2ccccc2)c2n[nH]c3c2CN(CCc2nn[nH]n2)CC3)cc1	0.06
55	CC1CCN(C(=O)CSc2nc(-c3ccc(F)cc3)cc(C(F)(F)F)n2)CC1	-0.53
56	Cc1cccn2c(=O)c(C(=O)NCCc3ccccc3)c(O)nc12	0.04
57	N#Cc1cccc(S(=O)(=O)N2CCCCC2CCn2cccn2)c1 (configuration not stated)	-0.66
58	Cc1cc2c(cc1C)NC(CC(=O)Nc1cccc(C)c1C)C(=O)N2 (configuration not stated)	-0.67
59	Cc1cc2nc3c(=O)n(C)c(=O)n(C)c3nc2cc1N=CN(C)C	-6.99
60	CCCN(CCC)CCCNC(=O)C1CCN(S(=O)(=O)c2cccc3nsnc23)CC1	-0.04

(listing goes on)
no.	Compound	fixLJ activator
61	COC(=O)c1cc2oc(C)cc2n1Cc1ccc(Br)cc1F	-0.48
62	Cc1nn(C)c(C(=O)N2CCCC(c3nccn3CCN(C)C)C2)c1Cl (configuration not stated)	1.33
63	COc1cc(C(=O)NCCCc2nc3ccccc3n2CC(C)C)cc(OC)c1OC	-0.56
64	Cc1cc(C)nc(N2CC[C@@]3(C(=O)O)CCCN(C)[C@H]3C2)c1	-0.87
65	Cc1cnn(CCC(=O)NC2COCC2Cc2ccnc3ccccc23)c1 (configuration not stated)	-1.47
66	Cc1ccc(C)c(Cn2c3ccccc3c3cnn(CC(=O)NC(C)c4ccccc4)c(=O)c32)c1 (configuration not stated)	-0.84
67	Cc1cnc(C(=O)O)c[n+]1[O-]	-1.71
68	CCCCc1nc(Cl)c(CO)n1Cc1ccc(-c2ccccc2-c2nn[nH]n2)cc1	1.49
69	Cc1ccc(Cl)cc1N1CCN(C(=O)CN2C(=O)COc3ccc(S(=O)(=O)N4CCCCCC4)cc32)CC1	-0.18
70	Cc1ccc(NC(=O)/C(C#N)=C\c2ccc(Cl)cc2Cl)cc1C	-3.01
71	Cc1nn(C)c2nc(-c3ccccn3)nc(N3CC(N4CCCCC4)C3)c12	-0.87
72	O=S(=O)(c1ccccc1)c1nc(-c2ccc(F)cc2)oc1N1CCOCC1	-0.91
73	CCOc1ccc(NC(=O)Nc2cccc(C)n2)cc1	-0.17
74	Cc1cc(C)c(OCC(=O)N(Cc2cccc(F)c2)Cc2ccco2)c(C)c1	1
75	O=C(CSC1=Nc2ccccc2C2=NC(CCC(=O)NC3CCCCC3)C(=O)N12)Nc1cccc(C(F)(F)F)c1 (configuration not stated)	0.04
76	COc1ccc2cc3cc(C(=O)N4CCN(c5ccccc5F)CC4)oc3nc2c1	0.59
77	Cc1ccc(Nc2c(-c3cccs3)nc3nc(C)cc(C)n23)cc1	-1.24
78	Cc1cc(C(=O)N2CCC3(CCC(=O)N(C4CCCC4)C3)CC2)nc(C)n1	-0.72
79	Cc1cc(C)cc(NC(=O)C2CCN(c3nnc(-n4c(C)ccc4C)s3)CC2)c1	-2.34
80	NC(=O)c1cccnc1N1CCN(c2nc3c(c(C(F)(F)F)n2)CCCC3)CC1	0.12
81	CCC1CCCCN1CC(=O)N1CCN(c2ccccc2OC)C(=O)C1 (configuration not stated)	-0.55
82	Cn1cc(C(=O)NCCc2ccc(Cl)cc2)c(=O)c2cc(S(=O)(=O)N3CCOCC3)ccc21	-0.45
83	O=C(CCC(=O)OCC(=O)c1ccc(Cl)cc1)Nc1ccc(Oc2ccccc2)cc1	-0.06
84	CCOc1ccc(NC(=O)c2oc3ccccc3c2NC(=O)c2ccc(OC)cc2OC)cc1	-0.41
85	O=C(CCn1c(=O)c2sccc2n(CC(=O)Nc2ccccc2)c1=O)NCc1ccccc1Cl	-0.79
86	Cn1ccnc1C(=O)NC1C2CN3CCN(C2)CC1(c1ccccc1)C3 (configuration not stated)	0.58
87	Cc1ccccc1C(=O)Nc1cccc(OCc2cc(=O)n3c(C)csc3n2)c1	-0.23
88	COc1ccc2oc(=O)c(C(=O)NCCc3c(C)[nH]c4ccc(Br)cc34)cc2c1	-1.76
89	COc1ccc(Cl)cc1NC(=O)C(C)n1nnc2sc3c(c2c1=O)CCCC3 (configuration not stated)	-0.88
90	CC(C)(C)c1cc(C(=O)N2CCOCC2CC(=O)O)cc(C(C)(C)C)c1O (configuration not stated)	0.22

Ordered by length of the SMILES (lowest first): part of the list above.
no.	Compound	fixLJ activator
86	Cn1ccnc1C(=O)NC1C2CN3CCN(C2)CC1(c1ccccc1)C3 (configuration not stated)	0.58
64	Cc1cc(C)nc(N2CC[C@@]3(C(=O)O)CCCN(C)[C@H]3C2)c1	-0.87
79	Cc1cc(C)cc(NC(=O)C2CCN(c3nnc(-n4c(C)ccc4C)s3)CC2)c1	-2.34
84	CCOc1ccc(NC(=O)c2oc3ccccc3c2NC(=O)c2ccc(OC)cc2OC)cc1	-0.41

Further compounds follow:
no.	Compound	fixLJ activator
91	CN1CCc2[nH]cnc2C12CCN(C(=O)c1cc3ccccc3s1)CC2	1.14
92	CC(C)n1cc(CN2CCOc3ccc(CO)cc3C2)cn1	-1.68
93	Cc1ccc(S(=O)(=O)NC2COCC2Cc2ccncc2)c(C)c1 (configuration not stated)	0.07
94	Clc1ccc2c(c1)C(N1CCNCC1)=Nc1ccccc1O2	-1.26&-1.46
95	COc1ccc(CCN2C(=O)NC(NS(=O)(=O)c3ccc(NC(C)=O)cc3)(C(F)(F)F)C2=O)cc1OC (configuration not stated)	0.03
96	O=C(c1ccccc1Cl)N1CCCC(c2nc3c(nnn3Cc3ccc(F)cc3F)c(=O)[nH]2)C1 (configuration not stated)	-1.97
97	COc1ccccc1C(=O)Nc1ccc(-c2nc3cc(C)cc(C)c3o2)cc1	0
98	O=C(c1cccc(Cl)c1)N(Cc1ccco1)Cc1ccccc1Cl	0.69
99	Cc1cc(Br)cc2c1N(Cc1ccccc1OC(C)C)C(=O)C2=O	1.32
100	Cc1cccc(-n2c3nc(=O)[nH]c(=O)c-3cc3ccc(Cl)cc32)c1C	-1.78
101	Cc1ccccc1NC(=O)C1CCN(S(=O)(=O)c2cccc3nonc23)CC1	-0.25
102	Cc1oc2cc3oc(=O)c(CC(=O)N4CCCCC4)c(C)c3cc2c1C	-1.42
103	O=C(NC1CCCN(Cc2cccs2)C1)c1cc(C2CC2)no1 (configuration not stated)	-0.17
104	CCN(CC)C(=O)C1CCN(C(=O)c2cnn(-c3ccccc3)c2-n2cccc2)CC1	-0.7
105	CC(O)c1nc2ccc(NC(=O)c3ccc(-n4cnnn4)cc3)cc2[nH]1 (configuration not stated)	-0.8
106	CCOc1cccc(C(=O)N(Cc2ccc(CC)cc2)C2CCS(=O)(=O)C2)c1 (configuration not stated)	0.57
107	CCc1nnc2c3ccccc3nc(Nc3cc(C)cc(C)c3)n12	-0.43
108	O=C(Cn1cc(C(=O)c2ccco2)c2ccccc21)Nc1ccccc1C(F)(F)F	-3.62
109	Cc1ccc(C(C)CCN(C)Cc2nc3ccsc3c(=O)[nH]2)o1 (configuration not stated)	-0.21
110	CCN(CC)CCCNC(=O)c1cc(-c2ccc(OC)c(OC)c2)on1	-2.42
111	OCc1ccc(-c2ccc(OCc3ccccc3)nc2)c(CO)c1	0.5
112	Cc1cc2oc(C(=O)Nc3ccc(S(=O)(=O)Nc4ncccn4)cc3)cc(=O)c2cc1C	-1.92
113	O=C(CCc1cc(Cl)no1)NCc1cccc2[nH]ccc12	1.3
114	FC(F)(F)c1ccc(C2=Nc3ccccc3NC(c3cccs3)=N2)cc1	-2.46

This is a subset, so the mix of outcomes need not match the whole.
